# Screens (PubChem)
# Rango complex inh: prevents formation of the Rango-importin beta complex; actives 0.031% (n = 340,000); Rango CFP/YFP FRET sensor + importin beta, 45 min; Potency, µM (titrated, usually from 92.2 µM), without a hit: at the highest dose inhibition of complex formation; active = rising FRET ratio curve, often small or poorly fitted; inconclusive = mostly compound fluorescence or quenching in the first reads; inactive = flat curves in all reads;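 also: potency is read from the fitted curve at half-maximal effect; 0% = DMSO wells and 100% = buffer wells lacking importin beta; nearly all actives have a fitted effect of over 15% in size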
#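 FRET biosensor (snurportin 1 IBB flanked by EYFP and cerulean), 50 nM, with compound 5 min, then 0.125 microM importin beta in PBS, 1 mM DTT, 0.02% Tween-20, 0.1% BSA. CFP/YFP ratio read after 45 min at room temperature; pre-read flags interference.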
# miR-21 FLuc: miR-21 reporter, rising signal; HeLa miR-21 FLuc reporter, luciferase, 48 h; Potency, µM (titrated, usually from 38.3 µM), without a hit: at the highest dose reporter change, positive = more light; 340,000 tested, under 10 active; AID 2288; active = well fitted rising curve with a large enough effect; inconclusive = small, poorly fitted or top-dose-only effect; inactive = no such curve, though single readings can be large or run the other way;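 also: % of control where 0% means no effect; miR-21 action dims this reporter so a rising signal means less miR-21 action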
#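 Compounds were titrated across several concentrations (up to approximately 40 uM) and incubated 48 hours with HeLa miR-21-FLuc reporter cells (miR-21 target sequence downstream of FLuc, endogenous miR-21). Readout was firefly luciferase luminescence after lytic detection reagent.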
# GLA inh pH 4.5: blocks human alpha-galactosidase A at pH 4.5; P06280; activity change, negative = inhibition, % at 105 µM; 230,000 tested, under 10 active; AID 1467; purified enzyme, 4-MU-alpha-Gal fluorescence, pH 4.5; inconclusive = small, poorly fitted or top-dose-only inhibition, or a rising curve; inactive = flat fitted curve, though single readings scatter; no compound was filed as active;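 also: 0% = full activity with enzyme and -100% = basal without enzyme; dose as in the result columns while the protocol names 77 µM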
# Target sequence (P06280 whole entry, looked up): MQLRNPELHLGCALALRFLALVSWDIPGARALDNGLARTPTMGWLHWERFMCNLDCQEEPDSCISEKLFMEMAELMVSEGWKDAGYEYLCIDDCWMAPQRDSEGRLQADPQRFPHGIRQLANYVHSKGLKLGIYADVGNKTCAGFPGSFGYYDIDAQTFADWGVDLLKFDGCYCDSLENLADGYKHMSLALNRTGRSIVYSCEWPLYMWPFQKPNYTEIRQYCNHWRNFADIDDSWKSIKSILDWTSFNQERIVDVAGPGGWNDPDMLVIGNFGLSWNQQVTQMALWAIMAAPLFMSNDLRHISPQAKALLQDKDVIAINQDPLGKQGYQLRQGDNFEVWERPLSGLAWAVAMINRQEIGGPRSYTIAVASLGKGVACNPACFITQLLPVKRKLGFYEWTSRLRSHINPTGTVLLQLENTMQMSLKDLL
# Rango dissoc inh: inhibition of RanGTP-driven Rango-importin beta dissociation; O95149+P62826; Biochemical FRET Rango-importin beta, RanGTP-induced dissociation; Potency, µM (top dose mostly 46.1 µM), for the others: top-dose activity change, negative = inhibition; actives 0.071% (n = 340,000); active means falling FRET ratio curve, often poorly fitted, with flat reads before Ran was added; inconclusive means other falling curves, or compound fluorescence or quenching; inactive means flat or rising ratio curve;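 also: potency is read from the fitted curve at half-maximal effect; % of control where 0% means no effect; nearly all actives have a fitted effect of over 45% in size; -100% = wells without RanGTP and RCC1; the record marks most hits as doubtful in a second field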
#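 Rango FRET biosensor (snurportin-1 IBB flanked by N-terminal EYFP and C-terminal CFP10) at 0.1 uM, with 0.25 uM importin beta in PBS, 1mM DTT, 0.02% Tween-20, 0.1% BSA. 0.6 uM Ran, 2mM GTP and 0.2 uM RCC1 were then added for 45 min at room temperature. Inhibition read as loss of FRET rise.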
# An asterisk follows results filed as active; ? = inconclusive; nt = no result given.
SMILES,Rango complex inh,miR-21 FLuc,GLA inh pH 4.5,Rango dissoc inh
Cc1ccc(Cn2c(=N)c(C(=O)NCc3ccco3)cc3c(=O)n4ccccc4nc32)cc1,?,3%,0,?
Cc1ccc(S(=O)(=O)Nc2ccccc2/C=N/c2nc3ccccc3n2C(C)C)cc1,?,?,5,?
COC(C/C=C/[C@@H](O)COCc1ccccc1)OC,2.0%,-1%,-14,7%
O=C(NCCc1ccccc1)c1cc([N+](=O)[O-])ccc1N1CCOCC1,2.1%,nt,nt,-19%
S=C1NC[C@H](Cc2ccccc2)N1CC1CCN(CCCCc2ccccc2)CC1,-5.1%,nt,nt,-6%
Cc1ccc(NC(=O)/C=C/c2ccc(S(=O)(=O)N3CCOCC3)cc2)cc1S(=O)(=O)N(C)C,?,nt,nt,-2%
COc1ccc(S(=O)(=O)NC(C)C(=O)NCc2cccnc2)cc1OC (centres undefined),0.3%,1%,nt,-10%
Cc1csc(SC(C)c2nc3scc(-c4ccccc4)c3c(=O)[nH]2)n1 (centres undefined),?,10%,10,-21%
COc1cccc(CC(=O)Nc2nc(-c3ccc(OC)c(OC)c3)cs2)c1,7.1%,17%,nt,-1%
Cc1csc(SCC(=O)NC(C)C2CC3CCC2C3)n1 (centres undefined),0.8%,nt,nt,13%
CCCn1nc(C(=O)OCC(=O)c2c(N)n(C)c(=O)n(C)c2=O)c2ccccc2c1=O,-1.3%,3%,4,0%
CN(CCc1cnn(C)c1)Cc1cn(C)nc1-c1ccc2c(c1)OCCO2,0.3%,-7%,6,?
CCN1CCN(C(=O)c2ccc(CN(c3ccc(C)c(C)c3)S(C)(=O)=O)cc2)CC1,-0.1%,0%,2,-2%
Cc1sc2ncnc(SCC(=O)c3ccc(O)cc3O)c2c1C,-2.3%,-21%,-1,-3%
C[C@H]1CC[C@@]2(O[C@H](CCO)C[C@@H](O)[C@@H]2O)O1,0.8%,-1%,5,-3%
O=C(C1CCCO1)N1CCN(C(=S)Nc2cccc(F)c2)CC1 (centres undefined),?,-9%,nt,-2%
O=C(NC1CCCC1)[C@@H]1CSC2c3ccccc3C(=O)N21 (some centres undefined),-1.1%,-12%,nt,7%
CCCCn1c(SCC(=O)NCc2ccccc2)nc2ccc(N3CCOCC3)cc2c1=O,-5.2%,-2%,8,-12%
COc1ccc(S(=O)(=O)N2CCN(c3ncccn3)CC2)cc1OC,?,-12%,nt,-2%
N#Cc1ccc(NC(=S)Nc2ccccc2)cc1,1.8%,-10%,-25,-9%
CCCCCc1ccc(S(=O)(=O)NCCc2ccncc2)cc1,-1.0%,11%,-3,2%
O=C(Nc1ccnn1C1CCN(C(=O)c2cccc(C(F)(F)F)c2)CC1)C1CC1,0.2%,-1%,nt,-13%
Cc1ccccc1CS(=O)(=O)CCC(=O)NCc1ccccn1,0.2%,-1%,-13,-4%
COc1ccccc1-c1cc(C(F)(F)F)n2ncc(S(=O)(=O)c3ccccc3)c2n1,?,0%,1,-18%
COc1ccc(-c2cn(-c3ccc(SC(F)F)cc3)c3[n+]2CCC3)cc1OC,-8.0%,1%,5,-1%
Cc1ccccc1NC(=O)CSc1nc(O)cc(=O)n1C,-1.0%,6%,5,-8%
O=C(CSc1nc(=O)n(CCCN2CCOCC2)c2c1CCCC2)Nc1ccc(F)cc1,-4.0%,nt,nt,-18%
COc1ccccc1N(CC(O)COc1c(C)cc(C)cc1C)S(=O)(=O)c1ccccc1 (centres undefined),?,15%,-16,-12%
NC(=O)CC(NC(=O)c1ccccc1)c1ccc(NCCOc2ccccc2)c([N+](=O)[O-])c1 (centres undefined),3.5%,-16%,5,0%
CC[C@@H](C)[C@@H]1CN([C@@H](C)CN2CCC[C@H]2CN2C(N)=NC[C@H]2C(C)C)C(=N)N1CCc1ccc(Cl)c(Cl)c1,-3.1%,nt,nt,21%
CCC1(COC(=O)Nc2cccc(Cl)c2)COC1,-0.5%,-54%,2,3%
Cc1cc(C(=O)Nn2cnnc2)ccc1[N+](=O)[O-],-3.0%,-1%,nt,-2%
Cc1ccc(NC(=O)COC(=O)c2ccn(C)n2)cc1,3.8%,4%,5,10%
COC(=O)CSc1nnc(CNC(=O)c2cc(OC)c(OC)c(OC)c2)n1C,4.6%,-2%,2,-7%
Cc1cc(C)c(OCC(=O)Nc2ccc(NC(=O)c3ccco3)cc2)c([N+](=O)[O-])c1,2.0%,-14%,1,-7%
O=C(CCc1c[nH]c2ccccc12)OCc1cccc(C(F)(F)F)c1,-0.5%,nt,nt,-3%
CCC(C)NC(=O)Nc1ccc(Br)cc1Cl (centres undefined),1.9%,-12%,-2,7%
COCC1CCCN(Cc2nc(Cc3ccccc3)no2)C1 (centres undefined),6.5%,0%,7,?
CCN(CC)S(=O)(=O)c1ccc(/C=C/C(=O)Nc2ccccc2N2CCOCC2)cc1,?,10%,-9,3%
NS(=O)(=O)c1ccc(CCNC(=O)Cc2ccc(S(=O)(=O)N3CCCC3)s2)cc1,-2.8%,-11%,-1,-8%
O=C(NCCO)C1CCN(C(=O)c2ccc(-c3ccccc3)cc2)CC1,2.8%,-4%,-2,10%
N#Cc1c(-c2ccc(Cl)cc2)cc(-c2cccs2)nc1SCC(=O)O,-0.2%,-7%,nt,-3%
Cc1c(OCc2ccccc2)c(=O)ccn1Cc1ccc(Cl)cc1,3.7%,16%,-2,12%
COC(=O)COc1ccc(S(=O)(=O)Nc2ccc3c(c2)OCO3)cc1Cl,4.6%,-1%,3,-2%
O=C(OCCn1cncn1)c1cc2ccccc2oc1=O,1.5%,-11%,-4,-6%
Cc1ccccc1NC(=O)NCC1CCCO1 (centres undefined),2.2%,-4%,7,-1%
C/C(Cl)=C/CSc1nn2c(=O)c3ccccc3nc2s1,-3.3%,-43%,3,3%
CN(Cc1ccccc1Cl)C(=O)C1CC(=O)N(c2ccc3c(c2)OCCO3)C1 (centres undefined),-0.3%,nt,nt,?
COc1ccccc1/C=C1\CCCC2=C1Nc1nnnn1C2c1ccccc1OC (centres undefined),?,1%,-9,-15%
CC1S/C(=N/N=C/c2ccco2)N(Cc2ccccc2)C1=O (centres undefined),2.9%,-25%,-2,11%
Cc1cc(NC(=O)c2cccc(S(=O)(=O)N(C)C)c2)n(-c2ccccn2)n1,6.7%,3%,-21,-9%
COc1cc(OC)cc(C(=O)N2CCC3(CC2)NCCc2[nH]cnc23)c1,-2.4%,1%,nt,-7%
O=C(C1CCCN(S(=O)(=O)c2ccccc2)C1)N1CCN(c2ccc(F)cc2)CC1 (centres undefined),6.8%,17%,nt,-5%
COC(=O)c1cc(OC)c(OC)cc1NC(=O)CN1CCOCC1,-5.7%,-6%,-1,16%
CCN(CC)S(=O)(=O)c1ccc2c(c1)nc(SCC(=O)N1CCCCCC1)n2-c1ccc(OC)cc1,-0.3%,0%,-3,-12%
CCCCC1(C)NC(=O)N(CC(=O)N2CCc3ccccc32)C1=O (centres undefined),3.5%,nt,nt,10%
COc1cc(/C=C2\COC/C(=C\c3ccc(O)c(OC)c3)C2=O)ccc1O,?,?,-14,33%
Cn1c(=O)c2c(nc(NCc3ccccc3)n2CC(N)=O)n(C)c1=O,-0.6%,1%,2,8%
CC(C)[C@H](NC(=O)c1cccc(S(=O)(=O)N2CCCC2)c1)c1nc2ccccc2[nH]1,4.6%,-1%,4,-5%
CC1CCN(C(=O)c2[nH]cnc2C(=O)N[C@@H](C)C(=O)OCc2ccccc2)CC1,1.2%,3%,3,-8%

# By substructure: those above with a furan ring, fused or not.
SMILES,Rango complex inh,miR-21 FLuc,GLA inh pH 4.5,Rango dissoc inh
Cc1ccc(Cn2c(=N)c(C(=O)NCc3ccco3)cc3c(=O)n4ccccc4nc32)cc1,?,3%,0,?
Cc1cc(C)c(OCC(=O)Nc2ccc(NC(=O)c3ccco3)cc2)c([N+](=O)[O-])c1,2.0%,-14%,1,-7%
CC1S/C(=N/N=C/c2ccco2)N(Cc2ccccc2)C1=O (centres undefined),2.9%,-25%,-2,11%

# Next entries follow.
SMILES,Rango complex inh,miR-21 FLuc,GLA inh pH 4.5,Rango dissoc inh
NC(=O)/C=C\c1cn(-c2ccccc2)nc1-c1ccc2c(c1)OCCO2,0.6%,-2%,-4,13%
CSCCC(NS(=O)(=O)c1ccc2c(c1)oc(=O)n2C)C(=O)NC1CCC(C)CC1 (centres undefined),-1.2%,-9%,11,0%
CCC(C)NC(=O)Cc1c(C)c2cc3c(cc2oc1=O)OC(C)(C)CC3 (centres undefined),1.1%,-28%,nt,-2%
CCCCC(=O)Nc1ccccc1CC,-1.5%,-3%,-9,0%
Cc1ccc(-c2nc(CS(=O)(=O)CC(=O)NCCN3CCOCC3)c(C)o2)cc1,-3.2%,1%,nt,-6%
Nc1ccc(Oc2ccc(Cl)cc2)cc1,-2.8%,0%,2,-4%
CCc1ccc(NC(=O)CCS(=O)(=O)c2ccc(Br)cc2)cc1,-0.4%,0%,nt,5%
CCN1CCN(C(=S)c2ccc(O)cc2)CC1,1.6%,-1%,3,1%
C=CCc1cccc2cc(C(=O)NCc3ccc(C(=O)OCC)o3)c(=O)oc12,-2.1%,1%,0,-4%
Nc1o[nH]c(=O)c1C1CCCCC1,-0.7%,nt,nt,-1%
CCN1CCN(C(c2ccccc2)c2nnnn2Cc2ccc(OC)cc2)CC1 (centres undefined),-0.1%,0%,1,-8%
C=C(C)CSc1cc(C)nc2c(-c3ccccc3)c(C)nn12,1.1%,-20%,-2,5%
COc1ccc(N=C2SC(CC(=O)Nc3ccc(OC)cc3OC)C(=O)N2C)cc1 (centres undefined),-0.6%,-1%,-14,-5%
CCN1C(=O)C(=O)N(CC(=O)N(C)CC(=O)Nc2ccccc2Cl)C1=O,5.1%,nt,nt,21%
O=C1C=C(c2ccc(-c3ccccc3)c(F)c2)C[C@@H](c2ccc(Cl)cc2)C1,-0.2%,nt,nt,15%
C(=N\Nc1nncn1/N=C/c1ccco1)/c1ccco1,-2.6%,0%,-9,-12%
O=C(Nc1cccc(F)c1)C1CCN(C(=O)c2ccccc2Cl)CC1,-4.8%,-1%,1,-7%
Cc1cc(C(=O)Nc2cccc([N+](=O)[O-])c2C)cs1,-4.4%,-31%,nt,-3%
COc1ccc(Cl)cc1Nc1nc(C)nc2c1nnn2Cc1ccccc1,2.0%,2%,nt,15%
CCC(=O)/C=C1/Sc2ccc(OC)cc2N1CCO,2.0%,6%,-8,-8%
CCCCc1nc(SCC(=O)Nc2nnc(CCCC)s2)n[nH]1,?,-1%,1,21%
Cc1cccc(NC(=O)CCc2ccc(C)o2)c1,-2.2%,-15%,-6,-9%
CC(=O)Nc1ccc(NC(=O)C2(C)CC2(Cl)Cl)cc1 (centres undefined),-2.0%,-6%,4,14%

# Structural class, the compounds so far with two or more sulfur atoms.
SMILES,Rango complex inh,miR-21 FLuc,GLA inh pH 4.5,Rango dissoc inh
Cc1ccc(NC(=O)/C=C/c2ccc(S(=O)(=O)N3CCOCC3)cc2)cc1S(=O)(=O)N(C)C,?,nt,nt,-2%
Cc1csc(SC(C)c2nc3scc(-c4ccccc4)c3c(=O)[nH]2)n1 (centres undefined),?,10%,10,-21%
Cc1csc(SCC(=O)NC(C)C2CC3CCC2C3)n1 (centres undefined),0.8%,nt,nt,13%
Cc1sc2ncnc(SCC(=O)c3ccc(O)cc3O)c2c1C,-2.3%,-21%,-1,-3%
NS(=O)(=O)c1ccc(CCNC(=O)Cc2ccc(S(=O)(=O)N3CCCC3)s2)cc1,-2.8%,-11%,-1,-8%
N#Cc1c(-c2ccc(Cl)cc2)cc(-c2cccs2)nc1SCC(=O)O,-0.2%,-7%,nt,-3%
C/C(Cl)=C/CSc1nn2c(=O)c3ccccc3nc2s1,-3.3%,-43%,3,3%
CCN(CC)S(=O)(=O)c1ccc2c(c1)nc(SCC(=O)N1CCCCCC1)n2-c1ccc(OC)cc1,-0.3%,0%,-3,-12%
CSCCC(NS(=O)(=O)c1ccc2c(c1)oc(=O)n2C)C(=O)NC1CCC(C)CC1 (centres undefined),-1.2%,-9%,11,0%
CCCCc1nc(SCC(=O)Nc2nnc(CCCC)s2)n[nH]1,?,-1%,1,21%

# This is a subset; the hit share may differ from the screen's.
